# Compound activity (PubChem BioAssay)
# Hsc70 – Hsc70 inhibitors, probe displacement, primary screen, biochemical, fluorescence polarization (AID 568); Heat shock cognate 71 kDa protein (Homo sapiens); Hsc70 fluorescence polarization, probe displacement; higher % means a stronger effect; strong numbers were not always called active; displacement, % at 20 µM; hits with a dose series show IC50 in µM; 83,000 tested, under 10 active;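 active = displacement above 50% without optical interference and an IC50 on retest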;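 note: ATPase domain with a fluorescein-tagged ATP probe; 0% = vehicle and 100% = excess ADP; read after one hour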
# WNV protease inh – inhibitors of WNV NS2B-NS3 protease, primary screen, biochemical, fluorogenic substrate | fluorogenic substrate Ex360/Em465; active compounds read low | z-score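 (tested at a level between 10 and 100 µM)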 | 0.18% of 65,000 active | AID 577, 2007;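 active = z-score at -3 or under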;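 note: score is relative to mean and spread of the compound wells of a plate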
# Target sequence (P06935 1371-1501 limits assumed): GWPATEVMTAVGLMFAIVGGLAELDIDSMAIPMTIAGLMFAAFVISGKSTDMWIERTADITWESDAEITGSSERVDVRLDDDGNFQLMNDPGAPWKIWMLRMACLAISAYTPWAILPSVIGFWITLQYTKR
# Target sequence (P06935 1502-1679 limits assumed): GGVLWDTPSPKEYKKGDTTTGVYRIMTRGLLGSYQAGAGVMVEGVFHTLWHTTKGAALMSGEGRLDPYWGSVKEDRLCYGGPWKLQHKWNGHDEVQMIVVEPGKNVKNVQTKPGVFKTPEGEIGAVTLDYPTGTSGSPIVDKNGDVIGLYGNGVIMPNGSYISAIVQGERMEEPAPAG
# MT1-MMP promoter – inhibitors of MT1-MMP promoter transcription, cell-based, luciferase reporter, luminescence (AID 618); MT1-MMP promoter luciferase reporter cells, luminescence; calls from a first round at 10 µM; hits with a dose series show EC50 in µM; 0.62% of 87,000 active;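 active = over half of the reporter light lost at 10 µM or EC50 under 50 µM; inactive = the rest and hits that failed the dose series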;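 note: actives suppress MT1-MMP promoter-driven transcription so potencies describe inhibitors; HT1080 fibrosarcoma cells; overnight exposure; toxic or luciferase-blocking compounds were not removed from the actives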
# Numbers without * were called inactive; i = inactive; . = not tested or not shown. A portion of the library; rates above refer to the full screens.
# Under each structure – WNV protease inh, MT1-MMP promoter, Hsc70
- O=C(O)C1CCN(C(=O)NC2CCCCC2)CC1
→ 1.4, i, -1.2%
- CC1CCCN(C(=O)c2ccc3c(c2NCCO)C(=O)c2ccccc2C3=O)C1 (stereo unspecified)
→ ., i, 5.5%
- CCOC(=O)N1CCC(NC(=O)CCN2C(=O)COc3ccccc32)CC1
→ 1.13, i, -1.0%
- O=C(c1ccco1)n1nc(-c2ccc(Cl)cc2)nc1NCc1ccco1
→ -0.61, i, -3.6%
- CC(SCc1ccccc1)C(=O)NC1CCCC1 (stereo unspecified)
→ -0.22, i, -1.8%
- Cc1ccc(C(C)n2cc(C(=O)NCc3ccncc3)nn2)cc1 (stereo unspecified)
→ 0.24, i, 0.3%
- CCOCC(=O)Nc1c(C(=O)OCC)oc2ccccc12
→ 1.28, i, -40.0%
- CN(C)c1nc(N)nc(CSc2nnnn2-c2ccccc2)n1
→ ., i, 1.4%
- CCCCC(CC)CNC(=O)CCS(=O)(=O)c1cccc2nsnc12 (stereo unspecified)
→ -0.87, i, -2.2%
- CC1CCN(Cc2ccc(NC(=O)CC3Oc4ccccc4NC3=O)cc2)CC1 (stereo unspecified)
→ 0.3, i, -1.9%
- CN(C(=O)c1ccc(C#N)cc1)c1nnc(-c2ccccn2)s1
→ ., i, 0.6%
- COc1ccc(C(=O)C2CCN(S(=O)(=O)c3ccc4c(c3)OCCO4)CC2)cc1
→ -0.75, i, -1.9%
- Nc1ccn(-c2ccccc2)c(=O)c1
→ -1.46, i, 2.8%
- Cc1ccc(NC(=O)c2cnc3scc(C)n3c2=O)c(C)c1
→ -1.17, i, 8.0%
- CC(Oc1ccccc1)C(=O)OCC(=O)NC(=O)NCc1ccco1 (stereo unspecified)
→ -0.63, i, 2.4%
- Cc1cc(C)c2nc(N3CCCC(C(=O)N4CCC(C(N)=O)CC4)C3)sc2c1 (stereo unspecified)
→ -1.62, i, -1.6%
- CCCCCC/C(=N/O)c1ccccn1
→ 0.61, i, -4.8%
- CCCCCC(=O)Nc1ccc(Cc2ccncc2)cc1
→ ., i, 3.9%
- COc1cccc(-c2cc(C(=O)N3CCN(Cc4ccccc4)CC3)no2)c1
→ -1.7, i, 4.1%
- CC1(C(=O)NCc2cccnc2)CCC(=O)N1CCc1ccccc1 (stereo unspecified)
→ -1.45, i, 6.8%
- Cc1ccc(OCc2ccc(C(=O)N3CCOCC3)cc2)cc1C
→ -0.86, i, 5.8%
- COc1ccc(/C=N/Nc2ccc([N+](=O)[O-])cc2)cc1Cn1cc([N+](=O)[O-])cn1
→ ., i, 2.7%
- Clc1ccccc1-c1nc(-c2cccnc2)no1
→ -0.00828, i, -0.3%
- CCn1c(SCC(=O)Nc2cc(C)c(Cl)cc2OC)nnc1-c1ccco1
→ -0.06, i, 4.1%
- O=C(Nc1nc2ccccc2[nH]1)C1CCCO1 (stereo unspecified)
→ 0.41, i, -2.7%
- Cc1cc(C(=O)Cn2nnc(-c3ccc(Cl)cc3)n2)c(C)n1CC1CCCO1 (stereo unspecified)
→ -0.00321, i, 7.5%
- Cn1c2c(c(=O)n(C)c1=O)CN(Cc1ccco1)CN2
→ 1.06, i, -2.8%
- O=C(CSc1nc2ccccc2o1)Nc1ccccc1N1CCOCC1
→ ., i, -4.3%
- CC1=NNC(=O)C1C(c1ccccc1)C(C#N)C#N (stereo unspecified)
→ ., i, 1.6%
- O=C(NCc1ccccc1F)C1CCCN1C(=O)NCc1ccccc1 (stereo unspecified)
→ -0.66, i, -0.7%
- O=C1NC(=S)SC1=C1CCCCCC1
→ -1.33, i, -11.8%
- c1coc(-c2nnc3sc(-c4cccs4)nn23)c1
→ 0.69, i, -5.3%
- Cc1cccc(-n2c(=O)[nH]c3c(C(N)=O)nc(CC(C)C)nc32)c1
→ 0.51, i, -6.9%
- O=C1c2ccccc2C(=O)N1CCCOc1ccccc1
→ -0.55, i, -4.9%
- COc1ccc(OC)c2c(C)cc(N3CCN(C(=O)c4ccc(F)cc4)CC3)nc12
→ 2.13, i, 4.9%
- O=S(=O)(c1ccc2c(c1)OCCO2)N1CCC(n2nnc3cc(C(F)(F)F)ccc32)CC1
→ -0.66, i, 3.8%
- COc1ccc(CNC(=O)CCc2nc(-c3ccccc3F)no2)c(OC)c1
→ 0.93, i, -9.3%
- COc1ccc(S(=O)(=O)Cc2ccc(C(=O)NCc3ccco3)o2)cc1
→ -0.1, i, -1.0%
- Cc1cc(NC(=O)CNC(=O)C2CCCCC2)no1
→ 0.67, i, 1.1%
- OCCCCCNc1ncnc2ccccc12
→ ., i, 9.0%
- CCC(c1nnc(SCC(=O)N2CC3(C)CC2CC(C)(C)C3)o1)N(C)C (stereo unspecified)
→ -0.4, i, 0.7%
- CC(=O)n1c2ccccc2c2c1c1ccccc1n2C
→ 0.92, i, -3.0%
- Cc1noc2ncc(C(=O)c3cc(F)ccc3O)cc12
→ ., i, 4.3%
- CSc1nc(Oc2ccc(=O)[nH]n2)nc(N(C)C)n1
→ -1.09, i, 3.0%
- CCC1CCCCN1C1Sc2ccc(C(=O)OC)cc2NC1=O (stereo unspecified)
→ -0.42, i, -6.7%

# Structural class: the compounds so far containing a Cl atom (4)
# Under each structure – WNV protease inh, MT1-MMP promoter, Hsc70
- O=C(c1ccco1)n1nc(-c2ccc(Cl)cc2)nc1NCc1ccco1
→ -0.61, i, -3.6%
- Clc1ccccc1-c1nc(-c2cccnc2)no1
→ -0.00828, i, -0.3%
- CCn1c(SCC(=O)Nc2cc(C)c(Cl)cc2OC)nnc1-c1ccco1
→ -0.06, i, 4.1%
- Cc1cc(C(=O)Cn2nnc(-c3ccc(Cl)cc3)n2)c(C)n1CC1CCCO1 (stereo unspecified)
→ -0.00321, i, 7.5%

# (further entries)
# Under each structure – WNV protease inh, MT1-MMP promoter, Hsc70
- O=C1COc2ccc(C(=O)CSc3nnc(Cc4cccs4)n3-c3ccccc3)cc2N1
→ 0.11, i, -11.2%
- CCCCOP(=O)(c1ccc(N(C)C)cc1)C(O)c1cccnc1 (stereo unspecified)
→ ., i, 0.5%
- COc1ccc(C2C(C#N)=C(N)Oc3n[nH]c(C)c32)cc1CSc1ccccn1 (stereo unspecified)
→ -0.56, i, 2.0%
- Cc1ccc(O)c(NC(=O)c2cccc(S(=O)(=O)N3CCCCC3)c2)c1
→ -1.05, i, -10.0%
- COCCn1nnnc1C(c1ccccc1OC)N1CCN(c2ccccc2F)CC1 (stereo unspecified)
→ 1.17, i, -1.9%
- CC(=O)N1N=C(c2ccc(C)cc2)OC1c1ccc(C(C)C)cc1 (stereo unspecified)
→ ., i, -2.4%
- CN(Cc1ccccc1)c1nc2c(c(=O)[nH]c(=O)n2C)n1Cc1ccccc1
→ -0.14, i, 0.3%
- Cc1cc2c(cc1C)-c1nnnn1C(C)(C)C2
→ 0.09, i, 0.9%
- CCOc1ccc2c(O)csc2c1
→ -0.69, i, 9.8%
- C=CCOC(=O)Nc1c(C(=O)OC)[nH]c2ccc(Cl)cc12
→ -1.55, i, -11.0%
- Cc1cc(OCCSc2nnc(-c3cccs3)n2C)ccc1Cl
→ -1.66, i, -7.8%
- Cc1ccc(-c2cc(N)n[nH]2)cc1
→ ., i, 3.2%
- CC1(C)CC(=O)c2cc(OCC(=O)NCCCN3CCN(c4ccccc4F)CC3)ccc2O1
→ 1.32, i, 3.3%
- COc1ccc(OC)c(N2C(=O)CC(Cc3ccc(C)cc3)C2=O)c1 (stereo unspecified)
→ 0.22, i, -1.8%
- CC(C)NC(=O)c1ccccc1NC(=O)CCS(=O)(=O)Cc1ccccc1
→ 1.97, i, -9.7%

# Single records, as listed above.
# Cc1ccc(O)c(NC(=O)c2cccc(S(=O)(=O)N3CCCCC3)c2)c1 is listed as WNV protease inh: -1.05; MT1-MMP promoter: i; Hsc70: -10.0%
# Cc1ccc(-c2cc(N)n[nH]2)cc1 is listed as WNV protease inh: .; MT1-MMP promoter: i; Hsc70: 3.2%

# Following part:
# Under each structure – WNV protease inh, MT1-MMP promoter, Hsc70
- Nc1nc(NC(=O)c2cccnc2)nn1-c1ccccc1
→ 0.47, i, -3.0%
- CCOC(=O)c1ccc(NC(=O)CSc2nc3c(c(=O)n2CC)SC(C)C3)cc1 (stereo unspecified)
→ 1.45, i, -2.9%
- CCOc1cc(CN2CCOCC2)cc(C(C)=O)c1
→ 0.61, i, -0.3%
- CC(C)(C)n1nc2c(c1NC(=O)c1ccc(Br)o1)CS(=O)C2 (stereo unspecified)
→ -0.37, i, -0.6%
- COc1cc(C(=O)N2CCN(C(=O)CC(C)C)CC2)cc(OC)c1OC
→ 0.09, i, -2.2%
- Cc1ccc(Nc2nc(N)nc(CN3CCN(Cc4ccc5c(c4)OCO5)CC3)n2)cc1Cl
→ 1.44, i, -0.3%
- COc1ccc(C2C/C(=N\O)C(C)(C)O2)cc1 (stereo unspecified)
→ -1.08, i, 3.1%
- Cc1ccc(-n2c(N)c(-c3nc4ccccc4n3C)sc2=S)cc1
→ 0.73, i, -0.9%
- Cc1ccc(SCC(=O)NCCN2C(=O)CSC2=O)c(C)c1
→ 0.00494, i, -2.3%
- Cc1nc(SCC(O)CO)c([N+](=O)[O-])[nH]1 (stereo unspecified)
→ ., i, 4.6%
- COCCCN(C)C1CCN(C(=O)Nc2ccc(F)cc2)CC1
→ -0.9, i, 5.1%
- CC(NC(=O)c1ccnc(C(C)(C)C)c1)c1ccccc1 (stereo unspecified)
→ -1.8, i, -0.3%
- COc1cccc(C(c2nnnn2Cc2ccco2)N2CCN(c3cccc(C)c3C)CC2)c1OC (stereo unspecified)
→ -0.24, i, -2.2%
- CCOC(=O)CC1C(=O)NCCN1Cc1cccc(C(F)(F)F)c1 (stereo unspecified)
→ -0.36, i, 3.1%
- CCn1c(Cc2cccn2C)nnc1SCC(=O)c1ccc(C)cc1
→ 0.8, i, 1.5%
- COc1ccc2c(c1)c(=O)oc1cc3occ(C(C)(C)C)c3cc12
→ ., i, -3.1%
- CCOC(=O)CCn1c(=O)c2c(nc(Br)n2Cc2ccccc2)n(C)c1=O
→ -0.69, i, 2.8%
- COc1ccc(S(=O)(=O)c2ccc(OC)c(OC)c2)cc1OC
→ -0.38, i, 4.8%
- Cc1ccc(S(=O)(=O)N(C)CC(=O)O/N=C(\N)c2ccc([N+](=O)[O-])cc2)cc1
→ ., i, 1.1%
- CN(C(=O)c1ccccc1Cl)c1ccccc1
→ 0.5, i, -2.2%
- Cc1ccc2c(c1)nnn2C1CCN(S(=O)(=O)c2ccc(C(=O)N3C(C)CCCC3C)cc2)CC1 (stereo unspecified)
→ 0.57, i, -4.0%
- Cc1nc2sccn2c1P(c1c(C)nc2sccn12)c1c(C)nc2sccn12
→ -0.5, i, 2.7%
- COc1ccc(S(=O)(=O)N2CCN(CC(=O)Nc3ccc(C)c(F)c3)CC2)cc1
→ -1.57, i, -8.4%
- O=C(NCc1ccccc1)c1noc2c1CCCC2
→ -0.58, i, -2.3%
- C(=N\n1cnc2ccccc21)/c1cccnc1
→ ., i, -6.1%
- CCOc1cc(C2c3c(n[nH]c3C)C(=O)N2c2ccc(Br)cc2)ccc1O (stereo unspecified)
→ 0.25, i, -2.3%
- CN1CCc2c(sc3c2C(=O)NC(c2cccs2)N3)C1 (stereo unspecified)
→ -0.67, i, -5.9%
- Cn1ncc(C#N)c1/N=C/N1CCCCC1
→ -0.28, i, 2.7%
- Cn1c(C(=O)NCCCN2CCCCCC2)cc2c(=O)n(C)c3ccccc3c21
→ 0.74, i, 6.6%
- O=C(CCCn1c(=S)[nH]c2ccccc2c1=O)NCc1ccco1
→ -0.3, i, 3.8%
- O=C(CCNS(=O)(=O)c1ccc(Cl)cc1)N1CCC2(O)CCCCC2C1 (stereo unspecified)
→ -1.48, i, -2.2%
- Cc1ccc(N=CC2=C(O)CC(c3ccco3)CC2=O)cc1 (stereo unspecified)
→ ., i, -0.5%
- CC(=O)NC(=O)c1nnn(Cc2ccccc2)c1NC(C)=O
→ ., i, -0.8%
- Cc1ccc(CNC(=O)c2ccc(NS(=O)(=O)c3c(C)noc3C)cc2)cc1
→ -0.4, i, -7.1%
- CCN1CCN(CCNC(=O)c2cn(C(C)c3ccccc3F)nn2)CC1 (stereo unspecified)
→ 0.63, i, 1.7%
- Cc1ccc(C(=O)c2oc3nc(C)cc(C)c3c2N)cc1
→ ., i, 7.9%
- Cc1cc(C)nc(Sc2c(C)nn(-c3ccccc3)c2C)n1
→ -0.87, i, -2.7%
- Cc1ccnc(NC(=O)c2cccs2)c1
→ ., i, -6.9%
- Cc1nnc(C)n1N1C(=O)c2cccc3cccc(c23)C1=O
→ -1.05, i, 0.0%
- O=C(NCCCN1CCOCC1)c1ccc(CNS(=O)(=O)c2ccc(F)cc2)cc1
→ 1.47, i, -2.2%
- COc1ccccc1CNC(=O)C1CC(=O)N(c2ccc(C)c(C)c2)C1 (stereo unspecified)
→ 0.9, i, 7.7%
- O=C(c1ccco1)N1CCCC(c2ccccc2)C1 (stereo unspecified)
→ 1.53, i, 0.1%
- c1ccc(Sc2ncnc3c2oc2ccccc23)cc1
→ ., i, 1.7%
- CC(C)(C)OC(=O)N1CCC(c2c(C(=O)O)cnn2-c2ccccc2)CC1
→ 1.79, i, -1.0%
- COC(=O)c1ccc(OC)c(CSc2nnc(-c3ccc(C(C)(C)C)cc3)o2)c1
→ ., i, 1.7%
- C=C(C)COc1ccc(-c2[nH]ncc2Oc2cccc(OC)c2)c(O)c1
→ 0.79, i, 4.1%
- CCOC(=O)c1ccc2c(c1)nc(COc1ccccc1C#N)n2CC
→ -1.37, i, -1.4%
- Cc1ccc(CSc2nnc(-c3ccco3)n2N)cc1
→ -1, i, 6.9%
